HIV TAR-Tat: HIV-1 TAR-Tat binding disruption; HIV-1 TAR RNA, Tat peptide displacement FRET; active compounds read high; z-score (concentration not given with the values); 100,000 compounds, 0.6% hits; AID 1259389;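 also: score is relative to mean and SD of negative controls; some compounds called inactive have numbers as strong as hits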
CDC25B-CDK2 inh: human CDC25B-CDK2/CyclinA binding inhibition; z-score (no concentration beside the values); HTRF CDC25B-CDK2/CyclinA binding, anti-His/anti-Flag; active compounds read high; AID 1259370; 94,000 compounds, 0.72% hits;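 also: score is relative to mean and SD of negative controls; strong numbers were not always called active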
* marks the source's active call; other numbers are inactive results; · = no result given; & = joins results of further samples.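 The calls were made as follows: active = z-score from 3 up in half or more of its runs; inactive = the rest.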 Not a hit list (roughly 0.87% active in at least one column).

SMILES	HIV TAR-Tat	CDC25B-CDK2 inh
O=S(=O)(c1ccc(C2CCCCC2)cc1)N1CCCC1c1cccs1 (configuration not stated)	-0.2	-0.48
CCc1nn(CC(=O)NCCN(C)C2CCCCC2)c(=O)c2cc3sc(C)cc3n12	1.2	-2.8
O=C(NCCCN1CCCC1)C1CCN(c2ccc(Cl)cc2)C1=O (configuration not stated)	0.47	·
CCOc1ccc2[nH]cc(S(=O)(=O)c3ccc(Cl)cc3)c(=O)c2c1	1.4	-0.48
CCOc1ccc2c(c1)NC(c1cccs1)=NC(c1cccs1)=N2	0.7	-0.93
O=C(c1c[nH]c2ccccc2c1=O)N1CCCC1	0.97	0.39
CCOc1cccc(-c2nc3c(c(=O)[nH]2)Cc2c(ccc4ccccc24)O3)c1	-0.21	-1.4
COc1cccc(-c2nc(N)nc(SC)c2C#N)c1	·	-0.18
CCCCN(CCCC)S(=O)(=O)c1cc2c(cc1Cl)N(C(C)=O)CCO2	-0.05	·
COc1cccc(C2CC(=O)Nc3c2cnn3-c2nc3ccccc3s2)c1OCc1ccccc1 (configuration not stated)	3	·
Cn1c(=O)c(=O)n(C)c2cc(S(=O)(=O)N3CCCC3C(=O)NC3CCCCCC3)ccc21 (configuration not stated)	·	-2.1
COc1cc(Nc2nc3ccccc3n3c(C)nnc23)c(OC)cc1Cl	1.1	-0.61
O=C(NCCc1c[nH]c2ccccc12)C1CCCN1c1nnc(N2CCCC2=O)s1 (configuration not stated)	1.4	·
COCCN(CCOC)c1ncnc2c1cnn2-c1ccc(OC)cc1	·	0.51
Cn1c(=O)[nH]c(=O)c2c1nc(N1CCOCC1)n2Cc1ccccc1F	1.5	-1.3

3 structures from above, sorted by length of the SMILES, descending.
SMILES	HIV TAR-Tat	CDC25B-CDK2 inh
Cn1c(=O)c(=O)n(C)c2cc(S(=O)(=O)N3CCCC3C(=O)NC3CCCCCC3)ccc21 (configuration not stated)	·	-2.1
COc1cc(Nc2nc3ccccc3n3c(C)nnc23)c(OC)cc1Cl	1.1	-0.61
CCOc1ccc2c(c1)NC(c1cccs1)=NC(c1cccs1)=N2	0.7	-0.93

(listing goes on)
SMILES	HIV TAR-Tat	CDC25B-CDK2 inh
Cc1cc(=O)nc2c3ccccc3n(CC(=O)NC(C)c3ccc4c(c3)OCCO4)n12 (configuration not stated)	-0.93	-1.1
COc1ccc(S(=O)(=O)NCc2c(C)nn(C)c2C)cc1	1.4	·
Cc1ccc(S(=O)(=O)N2CCCC(c3nc(-c4ccc5c(c4)OCO5)no3)C2)cc1C (configuration not stated)	1.4	·
CC(C)Cn1cnc2nc(CSc3ccccc3NC(=O)C(C)C)cc(=O)n21	-1.2	-1.3
O=S(=O)(c1ccc(F)c(F)c1)N(Cc1cc(CN2CCOCC2)cs1)c1ccc(Cl)cc1	0.79	·
Cc1sc2c(c1C)CSC(C(=O)N1CCN(c3ccc(Cl)cc3)CC1)=C2	-1.6	·
CCOC(=O)CCCc1sc(N)nc1-c1[nH]c(=O)[nH]c1C	0.11	0.45&-0.05
Cc1nn(CCCC(=O)N2CCN(C)CC2)c(=O)c2c1sc1ccccc12	2	-3.4
COC(=O)c1c(C)nn(-c2ccc(F)cc2)c1N	0.17	-0.29
CCOC(=O)Cc1csc(NC(=O)NC2(C(F)(F)F)Oc3ccc(Cl)cc3O2)n1 (configuration not stated)	·	1
O=C1CC(c2ccc(F)cc2)c2c(ccc3ccccc23)N1 (configuration not stated)	-0.39	0.99
Cc1csc2nc(CNS(=O)(=O)c3cccnc3)cn12	·	-0.03
CCc1c(CN2CC(C)CC(C)C2)csc1C (configuration not stated)	1.3	·
Cc1ccc(-c2nc3nc(C)cc(N4CCCC4)n3n2)cc1	1.8	-1.3
CC1CCCCN1C(=O)c1cc2c(=O)n3ccccc3nc2s1 (configuration not stated)	·	-1.9

SMILES	HIV TAR-Tat	CDC25B-CDK2 inh
Cc1nn(C)c(C)c1S(=O)(=O)N1CCc2c(c(C(=O)N3CCCC3)nn2C)C1	0.62	·
Cc1cc(Cl)ccc1NS(=O)(=O)c1ccc2c(c1)NC(=O)CC(C)S2 (configuration not stated)	1.6	·
O=C1Cc2cc(S(=O)(=O)N3CCCC3)cc3c2N1CCC3	0.86	·
Cc1ccc(C2CC(C(F)(F)F)n3ncc(C(=O)N4CCCCC4)c3N2)cc1 (configuration not stated)	1.4	-1.1
CCOc1cccc2c1OC(c1cccc(F)c1)N1N=C(c3cccnc3)CC21 (configuration not stated)	·	-1.2
COc1cccc2c1c(NC(=O)c1nccnc1C(=O)O)nn2C	·	0.57
CCCN(Cc1cccs1)C(=O)Nc1ccc(Br)cc1F	2.8	-0.55
CCCn1nc(-n2cnnc2)c(NS(=O)(=O)c2ccc(CC(C)C)cc2)c1C	0.45	2
Fc1ccc(N2CCN(c3nc4ccccc4n4cnnc34)CC2)cc1	0.26	-1.3
Cc1c(C(=O)NCCCN2CCCC2=O)oc2ccc3c(c12)C(=O)CC1(CCC(C)CC1)O3 (configuration not stated)	0.89	2.8
COc1ccc(S(=O)(=O)N2CCc3cc4ccccc4nc32)cc1	-3.1	-1.8
O=c1c(SCc2ccccc2F)nccn1-c1ccc(F)cc1	0.13	·
CC1CCC(NC(=O)c2csc3c2CCC(C)C3)CC1 (configuration not stated)	-0.71	-0.74
O=C1CCCN1Cc1ncnn1-c1ccccc1	·	-1.7
O=S(=O)(Nc1cccc(-c2ccc(N3CCCC3)nn2)c1)c1ccc2c(c1)OCCO2	2.6	·

SMILES	HIV TAR-Tat	CDC25B-CDK2 inh
OCCNCC(O)Cn1c2ccccc2c2ccccc21 (configuration not stated)	1.5	-0.21
Cc1ccc(S(=O)(=O)N2CCn3c2nc2ccccc23)cc1	1.6	-0.24
Cc1ccc(S(=O)(=O)Nc2cccc(-c3ccc(N4CCOCC4)nn3)c2)cc1C	0.65	·
CC1(C)CC(=O)C2=C(C1)NC1=C(C(=O)c3ccccc31)C2c1cccs1 (configuration not stated)	0.71	-0.39
Fc1cccc(Nc2ncnc3c2cnn3-c2cccc(Cl)c2)c1	1.6	·
Cc1c(CCCN)c2ccccc2n1Cc1ccccc1	1.8	-0.32
CCOc1ccc(-c2nnc3ccc(SCC(=O)c4ccc(OC)cc4)nn23)cc1	·	-6.7
CCCS(=O)(=O)c1ncc(Cl)c(C(=O)Nc2sc(C)c(C)c2C(=O)OCC)n1	1.1	-1.9
COC(=O)C1=C(C)NC2=C(C(=O)CC(C)(C)C2)C1c1cc(Cl)c(O)c(OC)c1 (configuration not stated)	0.22	-0.45
Clc1ccc(-c2noc(N3CCNCC3)n2)cc1	2.7	-0.74
COc1ccccc1NS(=O)(=O)c1ccc(-c2n[nH]c(C)c2C)s1	-0.39	·
COc1ccc(/C(O)=C2\C(=O)C(=O)N(CCCN3CCOCC3)C2c2ccc(C(C)(C)C)cc2)cc1 (configuration not stated)	-0.68	-1.8
COCC(=O)Nc1ccc2nc3n(c(=O)c2c1)CCCCC3	-0.39	-0.76
CSc1ncc(Cl)c(C(=O)Oc2ccccc2F)n1	2.8	-1.5
CCc1nc(-c2csc(S(=O)(=O)Nc3ccc(Cl)cc3C)c2)no1	0.27	·

SMILES	HIV TAR-Tat	CDC25B-CDK2 inh
CCOC(=O)C1CCN(C(=O)Cn2cnc3nc(SCC)ncc3c2=O)CC1	0.11	·
Cc1ccc2nc3sc(C(=O)N4CCCC4)cc3cc2c1	-0.31	·
Cc1ccccc1OCCN1C(=O)C(=O)c2cc(Br)cc(C)c21	0.18	-1.3
COc1cccc(NS(=O)(=O)c2ccc3c(c2)N(C)CCO3)c1	1.4	·
CCCCn1cc(NC(=O)C2=CC(c3ccc4c(c3)OCO4)=NS(=O)(=O)N2C)cn1	0.89	-1.5
CCCCCOc1ccc(NC2=CC(=O)CCC2)cc1	0.53	-1.7
COc1ccc(-c2noc(N3CCN(c4ncccn4)CC3)n2)cc1	-2.5	·
COc1ccc(N2CCN(c3nc4ccc(C)cc4n4nnnc34)CC2)cc1	0.33	·
O=c1nccc(NCc2ccco2)[nH]1	1.6	1.5
Cc1nc2ncnn2c(C)c1CCC(=O)N1CCCCC1	0.35	-0.36
O=S(=O)(CCN1CCOCC1)c1ccc(OC(F)(F)F)cc1	·	-2.1
CC(Sc1nnc(-c2cccnc2)o1)C(=O)c1ccccc1 (configuration not stated)	-1.1	-1.9
Cn1nc(C(=O)Nc2ccc(Cl)cc2)c2c1-c1ccccc1SC2	1	-0.54
CCOCCn1c(N2CCCCC2)nc2c1c(=O)[nH]c(=O)n2C	·	0.29
O=C(c1cc(C2CC2)[nH]n1)N1CCN(c2ccccc2F)CC1	1.4	·

SMILES	HIV TAR-Tat	CDC25B-CDK2 inh
CSc1cccc(N2C(=O)N(Cc3cccc(F)c3)c3ccccc3S2(=O)=O)c1	1.4	·
Cc1cc(C(=O)NNC(=O)c2ccco2)nn1C(C)(C)C	·	-2.7
COc1ccc(OC)c(-c2noc(NCc3ccc4c(c3)OCO4)n2)c1	0.64	·
CC(C)(C)c1nnc2sc(SCC(=O)Nc3ccccc3F)nn2c1=O	1.4	·
COc1ccc(N2CCN(S(=O)(=O)c3ccc(-c4cc(C)[nH]n4)s3)CC2)cc1	0.7	·
CCOc1ccc(-c2c(C)[nH]n3c(=O)c(N4CCCC4)c(C)nc23)cc1OCC	0.97	-3.7
Cc1cc2ncn(CCCOc3ccccc3)c2cc1C	0.28	-1.3
Cc1cc(C)n(-c2nc3c(c(=O)n2CC(=O)NC2CCCC2)CCC3)n1	2.2	·
CCOC(=O)COc1cc2oc(C)c(-c3nc4ccccc4s3)c(=O)c2cc1CC	·	-2.6
Cn1c(CNC(=O)OC(C)(C)C)nnc1SCC(=O)c1ccc(Cl)cc1	·	-1.1
CCOC(=O)CN1C(=O)c2ccccc2S1(=O)=O	-0.09	-0.43
Cn1c(=O)c2c(SCC(=O)NCC3CCCO3)nc(-c3ccccc3F)nc2n(C)c1=O (configuration not stated)	1.3	·
O=S(=O)(NCCc1cn2ccsc2n1)c1ccc(F)cc1	0.13	·
CCn1nc(-n2cnnc2)c(NS(=O)(=O)c2ccc(C3CCCCC3)cc2)c1C	0.87	-3.5
CCN1CCCC1CNC(=O)C1CCCN1c1nnc(N2CCCC2=O)s1 (configuration not stated)	2.7	-3.6

Shown with each value named: two of the compounds above.
COc1ccc(N2CCN(S(=O)(=O)c3ccc(-c4cc(C)[nH]n4)s3)CC2)cc1
  HIV TAR-Tat: 0.7; CDC25B-CDK2 inh: ·

CCOC(=O)COc1cc2oc(C)c(-c3nc4ccccc4s3)c(=O)c2cc1CC
  HIV TAR-Tat: ·; CDC25B-CDK2 inh: -2.6

(cont.)
SMILES	HIV TAR-Tat	CDC25B-CDK2 inh
Cc1ccc(-c2nnc3c4ccccc4c(C)nn23)cc1S(=O)(=O)N1CCCC1	0.54	-0.07
N#Cc1ccc(-c2ccccc2)nc1SCC(=O)OCc1ccccc1	-0.57	-1.3
CCN(CC)S(=O)(=O)c1ccc2c(c1)c(=O)c(C(=O)NC1CCC(C)CC1)cn2C (configuration not stated)	·	-0.03
COc1ccc(C2=NS(=O)(=O)N(C)C(C(=O)NCC3CCCO3)=C2)cc1 (configuration not stated)	1	-1.5
COc1ccccc1Cc1nc(-c2ccncc2)no1	2.3	-1.7
O=C(OCc1nc2ccccc2s1)c1ccc([N+](=O)[O-])o1	0.8	-2.1
O=C(COCc1cc(-c2ccc3c(c2)OCO3)on1)N1CCN(c2ccccn2)CC1	2	·
COc1ccc2cc3c(N)nn(C(=O)Cn4nc([N+](=O)[O-])c(Br)c4C)c3nc2c1	·	0.29
COc1ccc(Oc2coc3cc(OC(=O)c4ccco4)ccc3c2=O)cc1	0.01	-0.44
CC(C)c1ccc(CNc2nc3ccccc3n2C)cc1	0.43	-2
Cc1nc2c(-c3ccccc3)c(C)nn2c(C)c1CCC(=O)N1CCCC1	·	-0.04
CN1C(=O)c2ccccc2Sc2cc(NC(=O)c3cnccn3)ccc21	2.4	·
CN(C)c1ccc(C(CNC(=O)c2ccc3c(c2)OCO3)N2CCCC2)cc1 (configuration not stated)	-0.4	·
CNS(=O)(=O)c1ccc(OC)c(-c2nnc3c4ccccc4c(C)nn23)c1	0.85	-1.7
O=C(Cn1cc2c(n1)CCCC2)N1CCc2ccccc21	·	1.7

SMILES	HIV TAR-Tat	CDC25B-CDK2 inh
COc1cc(C2c3c(oc4ccccc4c3=O)C(=O)N2c2nnc(C(C)C)s2)ccc1O (configuration not stated)	0.46	0.42
C=CCn1c(C)c(C(C)=O)c(N2CCCCC2)nc1=S	·	-0.08
CC1CC(C)CN(C(=O)CCS(=O)(=O)c2cc3c(cc2Cl)NC(=O)CO3)C1 (configuration not stated)	1.7	·
O=C1c2oc3ccccc3c(=O)c2C(c2cccc(O)c2)N1CCCN1CCOCC1 (configuration not stated)	3	-1.9
COc1ccc(CSCC(=O)Nc2ccc(F)c(Cl)c2)c(Cl)c1OC	·	0.02
O=C(CSC1=Nc2ccccc2C2=NC(c3ccccc3)C(=O)N12)Nc1ccccc1Cl (configuration not stated)	-0.23	·
O=C(CSC1=NS(=O)(=O)c2ccccc2N1)Nc1ccccc1	-0.03	·
CC(C)CCNC(=O)c1ccc(-n2ccc3ccccc32)s1	0.81	·
CCCOc1ccc(C2Nc3ccccc3S(=O)(=O)N2Cc2ccccc2)cc1 (configuration not stated)	·	-1.1
CCOCCc1nn2c(=O)cc(COC(=O)c3ccc(C)cc3)nc2s1	0.48	·

Two compounds drawn at random from those above:
SMILES	HIV TAR-Tat	CDC25B-CDK2 inh
CC(C)CCNC(=O)c1ccc(-n2ccc3ccccc32)s1	0.81	·
COc1cc(C2c3c(oc4ccccc4c3=O)C(=O)N2c2nnc(C(C)C)s2)ccc1O (configuration not stated)	0.46	0.42

Assay outcomes from PubChem.
